# Screening data deposited in PubChem BioAssay by National Center for Advancing Translational Sciences (NCATS).
# VDR inh – inhibitors of human vitamin D receptor; P11473; VDR-SRC2-3 peptide fluorescence polarization, 2 h; Potency, µM, inactives show max response, negative = inhibition, most hits filed as inhibitors; actives 0.93% (n = 400,000); active = well fitted inhibition curve with a large enough effect; inconclusive = small, poorly fitted or top-dose-only effect, or another doubt; inactive = no such curve, though single readings can be large or run the other way; also: series mostly up to about 120 µM
# Target sequence (P11473 whole entry, looked up): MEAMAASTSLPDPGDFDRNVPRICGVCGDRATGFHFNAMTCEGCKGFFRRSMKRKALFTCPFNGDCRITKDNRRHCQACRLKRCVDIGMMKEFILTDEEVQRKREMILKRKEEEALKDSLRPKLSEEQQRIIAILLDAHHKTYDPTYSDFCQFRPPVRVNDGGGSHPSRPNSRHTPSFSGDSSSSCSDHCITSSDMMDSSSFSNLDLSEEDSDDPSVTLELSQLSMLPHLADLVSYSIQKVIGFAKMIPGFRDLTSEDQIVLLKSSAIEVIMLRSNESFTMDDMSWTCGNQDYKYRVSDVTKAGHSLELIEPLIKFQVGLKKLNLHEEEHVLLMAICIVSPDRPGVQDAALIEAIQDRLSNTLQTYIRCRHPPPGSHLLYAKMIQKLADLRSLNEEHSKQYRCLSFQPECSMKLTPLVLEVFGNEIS
#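 Inhibition of the VDR/SRC2-3 peptide interaction is quantified by fluorescence polarization. Compounds (23 nl, pintool) incubate with the reagents for 2 hours at ambient room temperature.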
# Numbers without * were called inactive; ? = inconclusive; & = joins results of further samples. % is scaled to controls: 0 for no effect and ±100 for the full control effect; potency is read from the fitted curve at half-maximal effect.
VDR inh	smiles
-3.9%	Cc1nn(-c2nc3ccccc3s2)c(N)c1-c1ccc(Cl)cc1
7.0%	C=CCN(CC=C)C(=O)CN1C(=O)NC(C)(c2ccc3cc(OC)ccc3c2)C1=O (configuration not stated)
-22.9%	Cc1nn(Cc2ccc(C(=O)Nc3ccc(C(=O)OC(C)C)cc3)o2)c(C)c1Cl
-2.6%	COc1ccc(-c2c(-c3cc(OC)cc(OC)c3)n(C)c3ccc(-c4ccn[nH]4)cc23)cc1
-23.3%	Cc1cccc(CN2C(=O)[C@H]3Cc4c([nH]c5ccccc45)C(C)(C)N3C2=O)c1
2.7%	Cc1c(Cl)cccc1NC(=O)COC(=O)Cn1cnc2c1c(=O)n(C)c(=O)n2C
-16.8%	Cc1cc(C)c2nc(-c3ccccn3)cc(C(=O)NCc3cc(C)n(C)n3)c2c1
0.7%	COc1cc(OC)c(OC)cc1CN1CCN(c2ccc(F)cc2)CC1
23.0%	O=S(=O)([N-]c1nc2ccccc2nc1-n1cc[n+](Cc2ccccc2)c1)c1ccc(Br)cc1
3.7%	CC(C)(C)C(=O)Nc1ccc(-c2nc3ccccc3s2)cc1
-6.3%	CSCCC(NC(=O)c1ccco1)C(=O)NCc1ccc(F)cc1 (configuration not stated)
-21.9%	COC(=O)CCC(=O)NC(=S)Nc1ccccc1F
6.9%	COC(=O)c1ccc(NC(=O)CN2CCCC2)cc1
-3.6%	O=C(c1cnc2n(c1=O)CCS2)N1CCN(C(c2ccccc2)c2ccc(Cl)cc2)CC1 (configuration not stated)
6.4%	CCCN(CC(=O)Nc1ccccc1C)C(=O)c1ccc(S(=O)(=O)N2CCCCCC2)cc1
1.0%	O=C(COC(=O)C1CC1)Nc1ccc([N+](=O)[O-])cc1C(F)(F)F
-10.7%	CCOc1ccc(C(=O)COC(=O)c2cccc(-n3cnnn3)c2)cc1
-19.9%	CCOC(=O)c1c(C)oc2c1C(=O)c1ccccc1C2=O
-0.2%	CC1(C)CSC(C)(C)C(=O)N1
15.3%	COc1ccc(/C=C/C(=O)O)cc1S(=O)(=O)NCc1ccccc1

# Some of the entries so far, tab-delimited:
SMILES	VDR inh
Cc1cc(C)c2nc(-c3ccccn3)cc(C(=O)NCc3cc(C)n(C)n3)c2c1	-16.8%
CSCCC(NC(=O)c1ccco1)C(=O)NCc1ccc(F)cc1 (configuration not stated)	-6.3%

# Further compounds
VDR inh	smiles
-27.6%	CCOC(=O)c1sc2nc(CSc3ccccc3)nc(N3CCC(C(N)=O)CC3)c2c1C
-14.5%	Clc1ccc(Cn2nnc(-c3ccc(CN4CCOCC4)cc3)n2)cc1
-8.6%	Cc1ccc(C2NC(=O)c3c(sc4c3CCN(C)C4)N2)o1 (configuration not stated)
-13.7%	O=C(CSc1ncnc2sc3c(c12)CCCCC3)NCc1ccco1
-4.3%	O=C(c1ccccc1SCc1ccccc1)N1CCCCCC1
-2.1%	O=C(CNC(=O)c1ccccc1Br)NNC(=O)c1cccs1
-3.9%	O=C(CNC(=O)c1ccco1)Nc1cc(Cl)ccc1N1CCOCC1
-9.4%	COc1ccc(NC(=O)CN2CCN(C3c4ccccc4-c4ccccc43)CC2)cc1
5.7%	O=c1[nH]c2ccccc2n2cnnc12
24.5%	Cc1cc(=O)oc(C)c1C(=O)Nc1ccccc1F
1.5%	COc1cccc(OCCOCC(O)CN2CCN(Cc3ccc(Cl)cc3)CC2)c1 (configuration not stated)
-7.1%	CC1(C)Cc2c(cnn2-c2ccccc2)C(NC(=O)c2ccoc2)C1 (configuration not stated)
1.9%	CCOc1ccc(NC(=O)c2c(NCc3cccs3)sc3c2CCC(C)C3)cc1 (configuration not stated)
4.6%	COc1ccc(CC(=O)N2CCN(c3ccccc3)CC2)cc1OC
-13.1%	O=C(NCc1ccco1)c1cc(S(=O)(=O)NC2CC2)ccc1Br
-9.9%	C=C1C2CC[C@@]3(C)C(c4ccoc4)OC(=O)C[C@@]13OC1CC(=O)C(C)(C)C(C(O)C(=O)OC)[C@]12C (some centres not stated)
8.4%	CC(C)NC(=O)C(=O)NNC(=O)C12CC3CC(CC(C3)C1)C2
-6.3%	CCOC(=O)C1(CC2CC2)CCN(Cc2ccc(C(=O)OC)cc2)CC1
4.5%	Cc1ccc2cc(/C=N/NC(=O)c3ccccc3[N+](=O)[O-])c(Cl)nc2c1
2.1%	O=C(CSc1ncnc2c1cnn2-c1ccccc1)Nc1ccccc1

# A few values from the list.
# VDR inh, CCOc1ccc(NC(=O)c2c(NCc3cccs3)sc3c2CCC(C)C3)cc1 (configuration not stated) = 1.9%
# VDR inh, Cc1ccc2cc(/C=N/NC(=O)c3ccccc3[N+](=O)[O-])c(Cl)nc2c1 = 4.5%
# VDR inh, O=c1[nH]c2ccccc2n2cnnc12 = 5.7%
# VDR inh, Clc1ccc(Cn2nnc(-c3ccc(CN4CCOCC4)cc3)n2)cc1 = -14.5%
# VDR inh, CC(C)NC(=O)C(=O)NNC(=O)C12CC3CC(CC(C3)C1)C2 = 8.4%
# VDR inh, CCOC(=O)c1sc2nc(CSc3ccccc3)nc(N3CCC(C(N)=O)CC3)c2c1C = -27.6%
# VDR inh, O=C(c1ccccc1SCc1ccccc1)N1CCCCCC1 = -4.3%

# (cont.)
VDR inh	smiles
-10.7%	C#CCOCCOCCOCCNc1nc(N2CCN(C(=O)[C@H]([C@@H](C)CC)n3cc([C@@H](N)CO)nn3)CC2)nc(N2CCN(C(=O)[C@H]([C@@H](C)CC)n3cc([C@@H](N)CC(C)C)nn3)CC2)n1
2.5%	NC(=O)C1CCN(C(=O)CSc2ncccn2)CC1
5.8%	O=C(Nc1nccs1)c1ccc(COc2ccc(Cl)cc2)o1
3.4%	COc1cc2c(cc1OC)[C@@H](Cc1cc(OC)c(OC)c(OC)c1)[N+](C)(CCCOC(=O)CC/C=C/CCC(=O)OCCC[N+]1(C)CCc3cc(OC)c(OC)cc3[C@H]1Cc1cc(OC)c(OC)c(OC)c1)CC2 (some centres not stated)
-19.5%	Cn1c(=O)c2[nH]c(CCC3CCCC3)nc2n(C)c1=O
12.0%	Cc1c2cnn(-c3ccccc3)c(=O)c2c(C)n1CC(=O)Nc1ccccc1Br
-6.9%	Cc1cc(NC(=O)c2ccccc2)cc(NC(=O)c2ccccc2)c1C
-10.1%	COc1ccc(C)cc1NC(=O)C(NCC(O)c1ccccc1)c1ccccc1 (configuration not stated)
4.3%	Cc1ccc2[nH]c(=O)c(CC=C(Cl)Cl)c(C)c2c1
10.0%	COc1cc(OC)c(NC(=O)COCc2cc(-c3cccs3)on2)cc1Cl
0.1%	O=C(CN1CCN(C(=O)CN2C(=O)NC3(CCCC3)C2=O)CC1)Nc1cccc(F)c1
11.9%	Cc1ccc(C2CCN(C(=O)Nc3ccccc3)C2)cc1 (configuration not stated)
0.5%	NC(=O)CC(NC(=O)c1ccccc1)c1ccc(NC2CCCC2)c([N+](=O)[O-])c1 (configuration not stated)
-19.5%	COc1cc(/C=C/C(=O)OCC(=O)Nc2ccccc2Sc2ccc(Cl)cc2)ccc1O
-1.8%	O=C(NCCNC(=O)Nc1ccc(Cl)cc1)Nc1ccc(Cl)cc1
-4.2%	NNc1nnc2c3cc(F)ccc3n(CCc3ccccc3)c2n1
-3.8%	CC1CCCC(NC(=O)COC(=O)[C@@H](NC(=O)c2ccccc2Cl)C(C)C)C1C (some centres not stated)
-19.3%	O=C(Nc1ccc2c(c1)OCO2)c1n[nH]c(=O)c2ccccc12
-0.4%	Cc1ccccc1N(CC(=O)N/N=C/c1cc(Br)c(C)o1)S(C)(=O)=O
-18.4%	Cc1ccc(Nc2ccncc2S(N)(=O)=O)cc1

# Next section; the last three above are carried over.
VDR inh	smiles
-19.3%	O=C(Nc1ccc2c(c1)OCO2)c1n[nH]c(=O)c2ccccc12
-0.4%	Cc1ccccc1N(CC(=O)N/N=C/c1cc(Br)c(C)o1)S(C)(=O)=O
-18.4%	Cc1ccc(Nc2ccncc2S(N)(=O)=O)cc1
-10.2%	COc1ccc(CN2CC(=O)N(c3cc(Cl)ccc3C)C2=S)cc1OC
12.6%	CCC1CCCCN1C(=O)Cn1c(=O)n(-c2ccc(Cl)c(Cl)c2)c(=O)c2c(C)c(C(=O)N(C)C)sc21 (configuration not stated)
18.2%	Cc1ccccc1Cn1ccc(-c2ccc3c(c2)OCO3)n1
-12.9%	O=C1CCc2cc(NS(=O)(=O)c3ccc(Cl)cc3)cc3c2N1CC3
79.4µM*	CC(C)c1ccc(Nc2nnns2)cc1
-5.6%	Cc1ccc(NC(=O)C2CCN(S(=O)(=O)c3c(C)[nH]c(=O)[nH]c3=O)CC2)cc1
-8.3%	Cc1cc(C)n(S(=O)(=O)c2ccc(Cl)cc2)n1
-1.8%	CCCN(CCC)C(=O)c1ccc2c(c1)S(=O)(=O)c1ccccc1C2=O
6.6%	O=C(COC(=O)CCc1nc2ccccc2s1)Nc1ccc(S(=O)(=O)N2CCOCC2)cc1
-19.6%	C#Cc1ccc([C@H]2C=C(C(=O)NC3CC3)O[C@@H](OCC)[C@@H]2CCCO)cc1
-9.7%	O=S(=O)(N/N=C\c1ccc(-c2ccccc2Cl)o1)c1ccccc1
-12.7%	CCOc1cc(/C=N/NC(=O)c2ccc(=O)n(C)c2)ccc1O
5.8%	CCOC(=O)c1ccc(NC(=O)CSc2nc(NC(=O)c3ccccc3)c3c(C)c(C)oc3n2)cc1
15.3%	C/C(=N\OC(=O)Nc1ccccc1)c1cnn(-c2cc(C(F)(F)F)cc(C)n2)c1C
4.9%	Cc1ccccc1N1CCN(CC(=O)Nc2nc(C)c(C(=O)N(C)C)s2)CC1
-17.5%	Cc1cccc(C)c1N(CC(=O)N(C)Cc1ccccc1)S(C)(=O)=O
-9.0%	COc1ccccc1Nc1nnc(SCc2cc(=O)n3ccsc3n2)s1
-19.9%	CC(=O)Nc1ccc2oc(-c3ccccc3Br)nc2c1
12.5%	Nn1c(SCC(=O)NCC2CCCO2)nnc1-c1ccc(OC(F)F)cc1 (configuration not stated)
4.0%	COc1ccc([C@@H]2CC=C(C(=O)O)[C@H](c3ccc(C)cc3)N2S(=O)(=O)c2ccccc2C)cc1
10.4%	O=C(Nc1ccc([N+](=O)[O-])cn1)C1CC1
-15.3%	Cc1cc(Nc2ccccc2C(=O)O)n(-c2ccc([N+](=O)[O-])cc2)n1
-9.1%	COC(=O)c1ccc(OC(=O)CCN2C(=O)C3C4c5ccccc5C(c5ccccc54)C3C2=O)cc1 (configuration not stated)
?	CCS(=O)(=O)C1=NSC2=NC(=O)/C(=C\c3ccc(OS(=O)(=O)c4ccccc4)cc3)C(=N)N21
18.5%	O=S(=O)(Nc1cccnc1)c1cccnc1
2.2%	COc1ccc(C2SC[C@@H](C(=O)O)N2C(C)=O)cc1 (some centres not stated)
-5.8%	COC(=O)CCc1c(C)c(C(=O)c2cc(OC)c(OC)c(OC)c2)c2ccccn12
-26.4%	COC(=O)c1c(NC(=O)C2c3ccccc3Oc3ccccc32)sc2c1CCC(C)C2 (configuration not stated)
-0.8%	Cc1nn(-c2ccccc2)c(Cl)c1/C=N/NC(=O)CCNc1n[nH]c(=O)[nH]c1=O
9.2%	O=C(NCCO)c1cccc(Cl)c1
-9.0%	COc1ccc(NC(=O)COC(=O)[C@@H]2CCCN2C(=O)c2cccs2)cc1
9.9%	CCOc1ccc(NC(=O)CCc2nnc3ccc(N4CCN(C)CC4)nn23)cc1
-16.7%	CCOC(=O)N/N=C\c1cccc(OC)c1
-11.1%	Cc1nn(-c2ccccc2)c(OC(=O)c2ccc(Cl)cc2)c1S(=O)(=O)c1ccccc1
-2.1%	COCCOc1cc(NC(=O)c2ccccc2)c(Cl)cc1Cl
1.4%	C=CCNC(=O)CC12CC3CC(C1)CC(CC(=O)NCC=C)(C3)C2
-5.2%	CCCc1cc(=O)[nH]c(SCC(=O)NCC2COc3ccccc3O2)n1 (configuration not stated)
-4.5%	CCc1nnc(NC(=O)CC(CN(C)S(=O)(=O)c2ccccc2)c2ccccc2)s1 (configuration not stated)
14.1%	O=C1c2cccnc2C(=O)N1Cc1ccc(S(=O)(=O)NCc2ccco2)s1
7.6%	COCCCNc1nc2ccccc2nc1NS(=O)(=O)c1ccccc1
2.2%	Cc1ccc(NC(=O)CSCc2cnn(-c3ccccc3)c2-n2cccc2)c(C)c1
-0.6%	COc1ncc2nc(-c3cn(C)c4ccccc34)c(=O)n(CCc3ccccc3)c2n1
-4.7%	CC(NC(=O)COC(=O)c1ccc(OCC2CCCO2)cc1)c1ccccc1Cl (configuration not stated)
?	N#CCc1ccc(NC(=O)Nc2cccc(Cl)c2)cc1
-10.1%	N#Cc1ccc(OCC(O)CN2CCN(C(c3ccccc3)c3ccccc3)CC2)cc1 (configuration not stated)
?	CCOC(=O)C1CCN(Cc2cc(Cl)c3ccccc3c2O)CC1
12.4%	c1ccc(-c2ccc(-c3ccccc3)[nH]2)cc1
-2.1%	Cc1ccccc1CC1(CO)CCCN(Cc2cn[nH]c2-c2ccccc2)C1 (configuration not stated)
3.4%	OCCOCCn1c(C(CO)Nc2nc(-c3ccc(F)cc3)cs2)nc2ccccc21 (configuration not stated)
-7.4%	CC(=O)Nc1nnc(C2=COCCO2)o1
5.2%	COc1cc(OC)cc(C(=O)Nc2nc(-c3ccccc3)c(-c3ccccc3)o2)c1
5.9%	COc1ccc(OC)c(-c2csc(NC(=O)CSc3ccccc3)n2)c1
2.5%	CCCCCCSc1ccc([C@@H]2[C@@H]3C(=O)N(C)C(=O)[C@@H]3[C@]3(C(=O)OC)CCCCN23)cc1
1.4%	COCC(=O)Nc1sc2c(c1C(=O)OC)CCCC2
-1.7%	C/C(CC(O)c1ccc2ccccc2n1)=N/O (configuration not stated)
19.3%	CCOC(=O)c1c(C)oc2nc(C)nc(Nc3ccc(C)c(Cl)c3)c12
-1.4%	COc1ccc(CCNC(=O)c2cc(=O)c3c(C)cc(C)cc3o2)cc1OC
-3.2%&-9.1%	CN1CCN(C2=Nc3ccccc3Oc3ccc(Cl)cc32)CC1
-6.2%	C=CCNC(=O)CSc1nnc(-c2ccccc2Br)n1-c1cccc(C(F)(F)F)c1

# A portion of the library; the hit share may differ from the screen's.
